Bioassay records from PubChem BioAssay.
Bst PK mod – modulators of Bacillus stearothermophilus pyruvate kinase; Potency, µM; AID 361; partly purified Bacillus stearothermophilus pyruvate kinase, luminescence ATP production; ribose 5-phosphate activator present at AC10; hit rate 1.2% among 51,000; in the data active means potency below about 11 µM; inconclusive means mostly about 12 µM to 25 µM; inactive means weaker than that;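 the screen sought inhibitors and activators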;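 further: potency means the concentration at half of the fitted maximal effect; scaled between full activation by ribose 5 phosphate and full inhibition by luteolin; about four in five hits inhibit and the cells do not say which; series up to 57 µM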
YjeE inh – inhibitors of E. coli YjeE (TsaE); purified YjeE, fluorescence polarisation of a bound ADP probe; Potency, µM; hit rate 0.05% among 71,000; P0AF67; active = well fitted falling curve; inconclusive = weaker or top-dose-only fall, or a rising curve; inactive = flat or poorly fitted curve;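 further: top concentration of the series not given in the record; excess ADP was the control for the full effect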
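Purified YjeE (10 uM) with BODIPY Texas Red-labeled ADP probe (2 uM); compounds pin-transferred, 15 min at room temperature. Binding inhibition read as decreased fluorescence polarization; ADP titration as control.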
Numbers without * were called inactive; i = inactive; ? = inconclusive; . = not tested or not shown. Only part of the results is shown (hit frequency here may not be typical).

Bst PK mod | YjeE inh | SMILES
. | i | COC(=O)[C@@]1(Cc2ccc(F)cc2)[C@H]2c3cc(C(=O)N(C)C)n(Cc4ccc(S(C)(=O)=O)cc4)c3C[C@H]2CN1C(=O)c1ccccc1
. | i | Cc1cc(N2C(=O)CC(Cc3ccccc3)C2=O)no1 (centres undefined)
. | i | CCCNC(=O)c1noc2c1CCc1ccccc1-2
>57 | i | Cc1ccc(OCCN2C(=O)OC(C)(C)C2(C)O)cc1 (centres undefined)
>57 | i | O=C(CNCCC1=CCCCC1)Nc1ccccc1N1CCCCC1
>57 | i | CCCn1c(SCCc2ccccc2)nc2c1c(=O)[nH]c(=O)n2C
>57 | i | Cc1cc(C)n(C(=O)c2ccc(S(=O)(=O)N3CCCC3)cc2)n1
>26 | . | COC(=O)C1=C(C)N=C2SC(C)C(=O)N2C1/C=C/c1ccccc1OC (centres undefined)
. | i | O=C(Cn1cc2c(n1)CCCCC2)N1CCc2ccccc21
>57 | i | CCN1CCN(Cc2nc3c(c(=O)n(C)c(=O)n3C)n2Cc2cccc3ccccc23)CC1
. | i | Cc1ccc(S(=O)(=O)N2C3C=CC(C3)C2C(=O)O)cc1 (centres undefined)
. | i | O=C(c1cn(-c2ccccc2)nc1-c1cccnc1)N1CCCCC1
0.64* | i | COc1ccc(C(=O)NC(=O)Nc2cc(C)ccn2)cc1
. | i | Cc1cccc(N2CCN(S(=O)(=O)c3cnc[nH]3)CC2)c1C
. | i | CCn1c(SCc2nc(-c3ccccc3)no2)nc2ccccc21
>57 | i | CCOC(=O)Cn1c(=O)c2c(nc3n2CCCCN3c2ccc(OCC)cc2)n(C)c1=O
. | i | CN(C)c1ncc2nc(-c3ccccc3)c(=O)n(Cc3ccc(F)cc3)c2n1
. | i | N=C(N)c1ccc(/C=C\c2ccc(C(=N)N)cc2)cc1
>57 | i | COc1cc(C(=O)N(CCCO)Cc2cc3ccc(C)c(C)c3[nH]c2=O)cc(OC)c1OC
>57 | i | CCOc1ccccc1NC(=O)C1Cc2ccccc2CN1S(C)(=O)=O (centres undefined)
. | i | CCOC(=O)N1CCC(NC(=O)c2cc3c(C)nc4ccccc4c3o2)CC1
. | i | C[C@@]1(C(NC(=O)Cc2ccc(C(F)(F)F)cc2)c2ccc(-c3ccccc3)cc2)C[C@H]1C1CCCCC1 (some centres undefined)
>57 | i | Cc1ccc(C)c(NC(=O)CCn2nc(C)cc2C)c1
. | i | O=c1c2[nH]c3ccc(F)cc3c2ncn1CCCN1CCOCC1
>26 | . | Cc1ccc(C(=O)NCC(C)(C)O)cc1
2.9* | i | COc1cccc(N2CC(O)=C(c3nc4ccccc4c(=O)[nH]3)C2=N)c1
>57 | i | Cc1ccccc1C(=O)N1CCC(C(=O)Nc2ccc(F)cc2)CC1
>57 | i | CC(C)CC(=O)N=C1SC2CS(=O)(=O)CC2N1CCc1ccccc1 (centres undefined)
>57 | i | CCc1ccc(NC(=O)CCNS(=O)(=O)c2cccc3nonc23)cc1
>57 | i | Cc1ccc2nc(NC(=O)CSc3nc4c(c(=O)n3C)SC(C)C4)sc2c1 (centres undefined)
>57 | i | CCCCN(CC)C(=O)c1cccc(Cl)c1
>57 | i | c1ccc(NC2=Nc3ccccc3CS2)cc1
>57 | i | COCCNS(=O)(=O)c1ccc(SC)cc1
. | i | Cc1ccc(-c2c(C(=O)N3CCOCC3)oc(=O)c3ccccc23)cc1
. | i | CN(C)c1ncc2nc(-c3cccs3)c(=O)n(CCC#N)c2n1
>57 | i | CCOc1ccc(NCc2nnc(SCC(=O)Nc3cc(C)on3)n2-c2ccccc2OC)cc1
. | i | O=C1Nc2ccccc2OC1CC(=O)N1CCOCC1 (centres undefined)
>57 | i | CCn1c(NCc2cccs2)nc2ccccc21
. | i | C[C@@H]1C[C@@H]2[C@H]3CCC4=CC(=O)C=C[C@]4(C)[C@]3(Cl)[C@@H](O)C[C@@]2(C)[C@@]1(O)C(=O)CO
. | i | COc1ccccc1CNc1cc(-c2c(C)noc2C)ncn1

Shown with values under each structure: part of the list above
Values in the order – Bst PK mod, YjeE inh
COC(=O)[C@@]1(Cc2ccc(F)cc2)[C@H]2c3cc(C(=O)N(C)C)n(Cc4ccc(S(C)(=O)=O)cc4)c3C[C@H]2CN1C(=O)c1ccccc1
→ ., i
CN(C)c1ncc2nc(-c3cccs3)c(=O)n(CCC#N)c2n1
→ ., i
Cc1ccc(C)c(NC(=O)CCn2nc(C)cc2C)c1
→ >57, i
CCc1ccc(NC(=O)CCNS(=O)(=O)c2cccc3nonc23)cc1
→ >57, i
CCn1c(SCc2nc(-c3ccccc3)no2)nc2ccccc21
→ ., i
COC(=O)C1=C(C)N=C2SC(C)C(=O)N2C1/C=C/c1ccccc1OC (centres undefined)
→ >26, .

The results go on.
Bst PK mod | YjeE inh | SMILES
>57 | i | COc1ccc(-c2noc(CCC(=O)Nc3nc4ccccc4s3)n2)cc1
. | i | CCOC(=O)CNC(=O)c1cc(-c2ccc3c(c2)OCCO3)oc1C
>57 | i | Cc1cnc(-c2nnc(N(C)C(=O)C3CCCO3)s2)cn1 (centres undefined)
. | i | Cc1noc(C)c1COC(=O)c1cc2c3ccccc3n(C)c2s1
>57 | i | Cc1ccc(CNC(=O)C2CCN(S(=O)(=O)N3CCOCC3)CC2)cc1
>57 | i | COc1cc(-c2noc(-c3cccs3)n2)cc(OC)c1OC
>57 | i | Cc1cc(C)nc(-n2nc(C)cc2NC(=O)CN2CCC(C)CC2)n1
. | i | O=C(/C=C/Nc1ccccc1Br)c1ccccn1
>26 | . | O=c1cc(-c2ccco2)nc(-c2cccs2)o1
>57 | i | Cc1cc(C)n(-c2nnc3n2N=C(c2ccccc2)CS3)n1
. | i | N#Cc1nc(-c2ccccc2F)oc1NCCN1CCOCC1
>57 | i | Cn1c(CC(=O)Nc2ccccc2)nnc1SCC(=O)c1ccccc1
>57 | i | CCOCCCNC(=O)C(NC(=O)c1ccc(=O)[nH]c1)c1ccccc1 (centres undefined)
>57 | i | Cc1nc(-c2ccc(C(=O)O)cc2)cs1
. | i | COC(=O)c1ccc(C)c(NS(=O)(=O)c2ccc(NC(C)=O)cc2)c1
>57 | i | O=C(CCNS(=O)(=O)c1cccs1)Nc1nccs1
. | i | COc1cccc(C2CC(=O)Nc3cc4c(cc32)OCCO4)c1OC(C)C (centres undefined)
>57 | i | Cc1ccc(NC(=O)c2oc3ccccc3c2NC(=O)c2ccc3c(c2)OCO3)cc1
. | i | COc1ccc(N2Cc3cccc(C(=O)NC(C)CCc4ccco4)c3C2=O)cc1 (centres undefined)
. | i | COc1cc(OC)cc(-c2nc(-c3ccc(Br)cc3)no2)c1
>57 | i | COc1ccc(NC(C)=O)cc1NC(C)C(=O)Nc1ccccc1F (centres undefined)
>57 | i | CCCSc1nc(C)c(-c2csc(C(C#N)=C3CCCC3)n2)cc1C#N
i | i | Cc1c(Cl)cccc1-n1nnnc1-c1cccs1
. | i | CCCC[C@H]1C[C@@H]1[C@@H]1N(P(=O)(c2ccccc2)c2ccccc2)C[C@@](O)(c2ccccc2)CC12CC2
>57 | i | COc1ccccc1N1CCN(C(=O)c2oc3cc(C)c(C)cc3c2C)CC1
. | i | O=C(Oc1ccccc1)N1CCC2(CCCN(c3ncccn3)C2)CC1
>57 | i | Cc1c(C(=O)c2no[n+]([O-])c2C(=O)c2cnn(C)c2C)cnn1C
>57 | i | O=C(CCN1C(=O)c2ccccc2C1=O)Nc1sc2c(c1C(=O)NCc1ccco1)CCCC2
. | i | O=C(NCCO[N+](=O)[O-])c1cccnc1
>57 | i | CCOC(=O)c1cc2oc(C)cc2n1CC(=O)OC1CCCCC1
>57 | i | Cc1ccc2nc(-c3ccccn3)cc(C(=O)N3CCN(c4ncccn4)CC3)c2c1
>57 | i | CC(C(=O)NC(=O)NC1CCCCC1)N1CCN(c2ccccn2)CC1 (centres undefined)
>57 | i | Cc1cc(=O)oc2cc(OC(C)C(=O)N3CCCc4ccccc43)ccc12 (centres undefined)
. | i | Cc1ccnc(N2C(=O)c3ccccc3C2Nc2ccc3c(c2)OCCO3)c1 (centres undefined)
i | i | CC(C(=O)O)N1C(=O)c2cccc3cccc1c23 (centres undefined)
. | i | CSc1nc(C)cc(NC(N)=O)n1
. | i | O=C(NC(Cc1ccc2c(c1)OCO2)C(=O)N1CCCC1C(=O)O)c1ccccc1 (centres undefined)
. | i | COC(=O)C1=CN(CCCN2CCCC2=O)C=C(C(=O)OC)C1c1ccccc1C(F)(F)F
. | i | COc1ccc(C(=O)Nc2ccc(N3CCOCC3)cc2)cc1OC
. | i | COc1ccc(OC)c(NC(=O)CN2C(=O)c3ccccc3S2(=O)=O)c1
. | i | CCOC(=O)C1=C(CS(=O)(=O)c2ccc(F)c(C)c2)NC(=O)NC1c1ccc(O)c(O)c1 (centres undefined)
. | i | COC(=O)C(NC(=O)c1ccccc1)=C1CCCCC1
>57 | i | CCCCn1c(C(C)O)nc2ccccc21 (centres undefined)
>57 | i | CCCN(CCC)CCNC(=O)Cn1cnc2sc(C)c(S(=O)(=O)N3CCOCC3)c2c1=O
>57 | i | NC(=O)CNC(=O)C1CCCc2c1[nH]c1ccc(Cl)cc21 (centres undefined)
. | i | COCCN1CCn2c(nc3cc(NC(=O)c4ccc(OC)cc4)ccc32)C1
>57 | i | Cc1ccc(CN2C(=O)CCC2C(=O)NC2CCCC2)cc1 (centres undefined)
. | i | COc1ccc(C2C(C#N)=C(N)N3C(=C2C#N)Sc2ccccc23)cc1 (centres undefined)

Random excerpt: 4 entries already listed.
Bst PK mod | YjeE inh | SMILES
>57 | i | Cc1ccc(CN2C(=O)CCC2C(=O)NC2CCCC2)cc1 (centres undefined)
. | i | COCCN1CCn2c(nc3cc(NC(=O)c4ccc(OC)cc4)ccc32)C1
. | i | CCOC(=O)C1=C(CS(=O)(=O)c2ccc(F)c(C)c2)NC(=O)NC1c1ccc(O)c(O)c1 (centres undefined)
. | i | COC(=O)C(NC(=O)c1ccccc1)=C1CCCCC1

Other results:
Bst PK mod | YjeE inh | SMILES
. | i | COc1ccc2[nH]c(C(=O)c3ccccc3)cc2c1
. | i | CCOc1ccccc1/C=C(\C#N)C(N)=O
>57 | i | O=c1c2ccccc2nnn1Cc1nnc(-c2ccccc2Br)o1
>11 | . | COC(=O)c1ccc(CN(C(C)=O)c2ccccc2)o1
>26 | i | Nc1nc2c(ncn2COCCO)c(=O)[nH]1
>57 | i | CCCCCCC(=O)Nc1ccc(Cl)cn1
>57 | i | O=C(CSc1nnc(-c2ccccc2)n1Cc1ccccc1)N1CCOCC1
>57 | i | O=C(Nc1ccccc1C(=O)NCc1cccnc1)c1ccco1
. | i | CC(C)CC(=O)N1CCN(C(=O)c2cccc(F)c2)CC1
>57 | i | CCCCc1ccc(NC(=O)N[C@H](C(=O)O)C(C)CC)cc1 (some centres undefined)
>57 | i | Cc1cc(C(=O)NCC(c2ccco2)N(C)C)no1 (centres undefined)
>57 | i | CCOc1nc(-c2ccccc2)ccc1-c1noc(-c2cccnc2)n1
>57 | i | COc1cc2c(cc1OC)C1Cc3ccc(OC)c(OC)c3CN1CC2 (centres undefined)
. | i | Cn1c(SCC(=O)NCC2CCCO2)nc2c([nH]c3ccccc32)c1=O (centres undefined)
. | i | CCOC(=O)NC(Nc1cc(C)ccn1)(C(F)(F)F)C(F)(F)F
>57 | i | Cc1cc(-c2nnc(SCc3cccnc3)o2)no1
>57 | i | Cc1ccc(NC(=O)NC2CCN(CC(=O)Nc3nccs3)CC2)cc1
. | i | Cc1ccc(O)c(C(=O)CC(=O)c2cccc(F)c2)c1
>57 | i | O=C(O)CCC1=C2c3ccccc3CCN2C(=O)CC1
>57 | i | CCOC(=O)C1=C(C)NC(=O)NC1c1ccoc1 (centres undefined)
. | i | CCOc1ccc(S(=O)(=O)n2c(C)nc3ccccc32)cc1
>57 | i | CN(c1ccccc1C(=O)N1CCCC1)S(C)(=O)=O
. | i | Cc1sc2ncnc(NCCCn3ccnc3)c2c1C
. | i | CCCCCC[C@@H]([C@H](C)O)n1cnc2c(N)ncnc21
>57 | i | O=c1[nH]c(SCc2ccc(Cl)cc2)nc2c1CCC2
>57 | i | COc1cccc(C2=NOC(C(=O)NCC3CCCO3)C2)c1 (centres undefined)
. | i | COc1ccc(C(=O)CCC(=O)N2CCN(c3ccc(N4CCOCC4)nn3)CC2)cc1
. | i | CCCn1c(C)nc2c(N(CCN(C)C)Cc3ccccc3)nc(C)nc21
. | i | CCCCOc1ccccc1C1C(C(=O)OC)=CN(CC)C=C1C(=O)OC
>57 | i | CC1CCCN(c2nc3c(c(=O)n(C)c(=O)n3C)n2Cc2ccccc2)C1 (centres undefined)
. | i | O=C(NCCCN1CCOCC1)c1ccc(S(=O)(=O)N2CCOCC2)cc1
>57 | i | CCC(=O)Nc1ccc(C(=O)CSc2nnc(CNc3ccc(Cl)cc3)o2)cc1OC
. | i | O=C(COc1ccc(Cl)cc1)N1CCN(Cc2ccc3c(c2)OCO3)CC1
>57 | i | O=C(COc1ncnc2c(Cl)cc(Cl)cc12)N1CCCCC1
>57 | i | CCOC(=O)C1CCCN(c2c(NCCCN(CC)c3ccccc3)c(=O)c2=O)C1 (centres undefined)
. | i | COc1ccc(NC(=O)N2CC3(CCN(C(C)=O)CC3)C2)cc1
>57 | i | CCOC(=O)C1CCCN(c2c(NCCCN(C)Cc3ccccc3)c(=O)c2=O)C1 (centres undefined)
. | ? | CC1=c2c(oc3cc(O)c(Nc4c(C)cc(O)cc4O)c(C)c23)=CC(=O)C1=Nc1c(C)cc(O)cc1O
